Measles inh = inhibitors of measles virus growth in infected cells. AID 745. infected Vero cells, GFP fluorescence, 64 h; hits give low values. z-score (test concentration not listed). 0.1% of 33,000 active;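 active means z-score under -3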;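 further: score is relative to mean and SD of the compound wells of a plate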
The depositor's hits bear a star.

Measles inh | SMILES
0.39 | CCOC(=O)C(C)Sc1nnnn1-c1ccccc1 (configuration not stated)
2.68 | Fc1ccccc1C1C=C(c2cccs2)Nc2nnnn21 (configuration not stated)
0.52 | Cc1cccc(-n2ccnc2SCC(=O)Nc2cccc(C)c2C)c1
0 | CCOC(=O)c1c(NC(=O)c2cccc(OC)c2)sc2c1CCC(CC)C2 (configuration not stated)
0.48 | N#Cc1nc(-c2ccccc2F)oc1NCC1CCCO1 (configuration not stated)
0.84 | COc1ccc(-c2csc(NC(=O)CN3C(=O)CCC3=O)n2)c(OC)c1
1.93 | Cc1ccc(NC(=O)c2ccc(NCCc3ccccc3)c([N+](=O)[O-])c2)cc1F
-0.14 | C=CCC1C=CCC(CC=C)N1 (configuration not stated)
0.28 | COCCNC(=O)c1c[nH]c2ccc(S(=O)(=O)Nc3ccc4c(c3)OCCO4)cc2c1=O
2.3 | COc1ccc(-c2nc3ccccc3o2)cc1NC(=O)c1cc(Cl)ccc1OC
-0.55 | O=[N+]([O-])c1ccc(N2COc3ccc4cc(Br)ccc4c3C2)cc1
0.84 | Cc1nn(-c2ccccc2)c(OC(=O)c2cc(Cl)ccc2[N+](=O)[O-])c1S(=O)(=O)c1ccc([N+](=O)[O-])cc1

(more compounds)
Measles inh | SMILES
-0.07 | O=C(O)c1cc(-c2c[nH]c3ccccc23)n[nH]1
-0.47 | COc1cccc(C2CC(c3cccc(Br)c3)Nc3ncnn32)c1 (configuration not stated)
-1.25 | CCc1ccc(NC(=O)c2coc(=O)c3ccccc23)cc1
-0.53 | CCC(Oc1ccc2c3c(c(=O)oc2c1)CCC3)C(=O)OCC(C)C (configuration not stated)
-1.28 | Cc1ccc(NC(=O)c2[nH]ncc2[N+](=O)[O-])c(C)c1
-1.92 | COc1cc(C)ccc1Oc1ncnc(N)c1[N+](=O)[O-]
-0.55 | Cc1cc(C)c(NC(=O)c2cc(S(=O)(=O)N3CC(C)CC(C)C3)ccc2F)c(C)c1 (configuration not stated)
-0.44 | Cc1cc(C)nc(N2CCOCC2)n1
-0.64 | CCC(C)NC(=O)CN1CCN(Cc2ccc(C)cc2)C1=O (configuration not stated)
1.43 | CC(=O)c1cccc(OC(=O)C2c3ccccc3Oc3ccccc32)c1
-0.83 | COc1ccc(CN2CCCC(C(=O)N3CCCCC3)C2)c(OC)c1OC (configuration not stated)
1.02 | O=C1c2cc([N+](=O)[O-])cc3cc([N+](=O)[O-])cc(c23)C(=O)N1c1cccc([N+](=O)[O-])c1

Taken from above:
Value of Cc1cc(C)c(NC(=O)c2cc(S(=O)(=O)N3CC(C)CC(C)C3)ccc2F)c(C)c1 (configuration not stated) under Measles inh: -0.55
Value of COc1ccc(CN2CCCC(C(=O)N3CCCCC3)C2)c(OC)c1OC (configuration not stated) under Measles inh: -0.83
Value of O=C1c2cc([N+](=O)[O-])cc3cc([N+](=O)[O-])cc(c23)C(=O)N1c1cccc([N+](=O)[O-])c1 under Measles inh: 1.02
Value of CCC(Oc1ccc2c3c(c(=O)oc2c1)CCC3)C(=O)OCC(C)C (configuration not stated) under Measles inh: -0.53

(list continues)
Measles inh | SMILES
0.24 | N#CCCCSc1nnnn1-c1ccccc1
0.24 | CSc1nsc(Br)c1NC(=O)C(F)(F)F
0.84 | CC1=Nc2cc(C(=O)O)ccc2Sc2ccc(C)cc21
0.13 | CCOC(=O)c1c(NC(=O)c2ccccc2OC)sc(C(C)=O)c1C
-0.06 | CC1CCN(C(=O)CCS(=O)(=O)c2cc(Br)cc3c2N(C(=O)C2CC2)CC3)CC1
-0.23 | CC(=O)Nc1nnc(SCC(=O)Nc2ccc(F)cc2)s1
-0.9 | COc1ccc(C2/C(=C(\O)c3ccc(F)cc3)C(=O)C(=O)N2c2nnc(C)s2)cc1OC (configuration not stated)
1.83 | CC(=O)c1cccc(NS(=O)(=O)c2cc(C(=O)Nc3ccc(C(=O)O)cc3)ccc2C)c1
2.35 | O=C(CN1CCN(c2nc3ccc([N+](=O)[O-])cc3s2)CC1)Nc1ccc(Br)cc1
-0.23 | CC(=O)c1nn(-c2cccc(Cl)c2)cc1C(=O)c1ccco1
-1.92 | CCOC(=O)CSc1nnc2n(Cc3ccccc3)c(=O)c3c(n12)-c1ccccc1CC31CCCCC1
0.54 | CCOc1cc(Br)cc(C2Oc3nc(SC)nnc3-c3ccccc3N2C(C)=O)c1OC(C)=O (configuration not stated)

(cont.)
Measles inh | SMILES
-1.18 | Cc1ccc(C2=NN(CC(=O)NCc3cccs3)C(=O)CC2)cc1
-0.45 | COc1cc2c(cc1OC)C(COc1ccc([N+](=O)[O-])cc1)N(C(C)=O)CC2 (configuration not stated)
0.33 | CCCCSc1oc(-c2ccc(F)cc2)nc1S(=O)(=O)c1ccc(C)cc1
1.55 | N#CCc1ccc(NC(=O)c2ccc(Cl)cc2)cc1
1.18 | O=[N+]([O-])c1ccc2c(c1)ncn2CCO
0.71 | Cn1c(SCC(=O)Nc2nccs2)nc2c([nH]c3ccccc32)c1=O
-0.5 | COc1ccccc1C(=O)OC1=C(C(=O)c2ccccc2)N(CC#N)S(=O)(=O)c2ccccc21
0.74 | O=C(CCn1c(=O)[nH]c2ccccc2c1=O)NCCc1c[nH]c2ccccc12
-1.67 | Cc1onc(-c2ccccc2)c1C(=O)Nc1sc2c(c1C#N)CCC(C)C2 (configuration not stated)
0.71 | O=C(CSc1ncccc1C(=O)N1CCN(c2ccccc2)CC1)Nc1ccc(Br)cc1
-0.83 | Cc1cc(C)c(S(=O)(=O)N2CC(C)CC(C)C2)c(C)c1 (configuration not stated)
-0.08 | Oc1ccc(CNCC2NCCc3ccccc32)cc1Cl (configuration not stated)

The closing two records of the part above lead into the next.
Measles inh | SMILES
-0.83 | Cc1cc(C)c(S(=O)(=O)N2CC(C)CC(C)C2)c(C)c1 (configuration not stated)
-0.08 | Oc1ccc(CNCC2NCCc3ccccc32)cc1Cl (configuration not stated)
0.05 | COc1ccc(NC(=NS(=O)(=O)c2ccc(C)cc2)c2ccc(Cl)cc2)cc1
-0.39 | COc1ccc(Cl)cc1-c1n[nH]c(=S)o1
-1.26 | CC(O)CNc1nc2c(c(=O)n(C)c(=O)n2C)n1Cc1ccccc1Cl (configuration not stated)
-0.6 | CCC1=Nc2cc(C(=O)NCCOC)ccc2Sc2ccc(Cl)cc21
0.69 | O=C(Nc1cc(C(=O)N2CC=C(c3ccccc3)CC2)ccc1N1CC2CC(C1)c1cccc(=O)n1C2)c1cccc(C(F)(F)F)c1 (configuration not stated)
-1.66 | COc1cccc(NC(=O)CCNS(=O)(=O)c2ccc(Br)s2)c1
-1.05 | CCc1ccccc1NC(=O)CN(Cc1ccccc1)S(=O)(=O)c1ccc(Br)cc1
-0.59 | O=C(NCCCN1CCN(c2ccc(F)cc2)CC1)C1COc2ccccc2O1 (configuration not stated)
-0.2 | O=C(c1csc2ccccc12)N1CCN(c2ncccn2)CC1
0.37 | O=c1[nH]c2ccc(S(=O)(=O)Nc3ccc(OC(F)(F)Cl)cc3)cc2o1
1.26 | O=C(CSc1nc2c(sc3ccccc32)c(=O)n1CCc1c[nH]c2ccccc12)NCc1ccco1
-0.45 | Cc1ccc(-c2csc(NC(=O)c3ccccc3F)n2)cc1C

Going on with the list.
Measles inh | SMILES
-0.44 | Cc1ccc(OCC(=O)NCc2ccccc2)cc1C
0.88 | CC(=O)Oc1cccc(-n2c(=O)c3ccccc3c3ccccc3c2=O)c1
-1.26 | CC1CC(C)CN(C(=O)c2n[nH]c(=O)c3ccccc23)C1 (configuration not stated)
-0.12 | COCCCNC(=O)N1c2ccccc2Sc2ccccc21
0.02 | N#Cc1cc([N+](=O)[O-])ccc1-n1nnc2ccccc21
0.85 | CCCN1C2=NCCCN2c2ccccc21
-0.75 | CC(=O)C1=NN(c2ccccc2Cl)C2C(=O)N(c3ccccc3)C(=O)C12 (configuration not stated)
-0.25 | CCOc1ccc(NC2=Nc3cccc4cccc2c34)cc1
-0.1 | COc1ccc(OCC(=O)N2c3ccc(F)cc3CCC2C)cc1 (configuration not stated)
0.43 | CN(C(=O)Cc1c[nH]c2ccccc12)C1(C(=O)NC2CCCC2)CCCCC1
-0.12 | O=C(CCCn1c(=O)[nH]c2ccccc2c1=O)N1CCN(c2ccc(F)cc2)CC1
1.18 | O=C(c1cnc(N2CCN(c3ccccn3)CC2)c2ccccc12)N1CCC(Cc2ccccc2)CC1

Continued.
Measles inh | SMILES
-0.39 | Nc1c2c(nc3ccccc13)CCCC2
-0.86 | COC(=O)c1cc(NC(=O)c2c(OC)cccc2OC)cc(C(=O)OC)c1
-0.58 | COc1cc2c(cc1OC)C(C(=O)NCc1ccco1)C(c1cccs1)N(C)C2=O (configuration not stated)
0.45 | COc1ccc(NC(=O)C2=C(C)NC(=S)NC2c2ccccc2C)c(OC)c1 (configuration not stated)
0.35 | COc1ccc(NC(=O)c2ccc(N3C(=O)C4CCCCC4C3=O)cc2)c(OC)c1 (configuration not stated)
-1.46 | CN(C1=NS(=O)(=O)c2cc([N+](=O)[O-])ccc21)c1ccccc1
-0.58 | COc1ccc(Br)cc1S(=O)(=O)NCC1CCCO1 (configuration not stated)
0.66 | CCOC(=O)C(C)(C)N(CC)S(=O)(=O)c1cccc([N+](=O)[O-])c1
-0.74 | Cn1c(CCNC(=O)C(C)(C)C)nc2ccccc21
-0.55 | CC(C)N1C(=O)CCC1C(=O)O (configuration not stated)
1.39 | CCc1ccccc1NC(=O)CCS(=O)(=O)c1cc(Br)cc2c1N(C(=O)C1CC1)CC2
0.54 | CCc1nc(SCC(=O)OC)n[nH]1

Next structures
Measles inh | SMILES
0.79 | O=C1C2C3C=CC(C3)C2C(=O)N1c1ccc(NCc2ccccn2)c([N+](=O)[O-])c1 (configuration not stated)
-0.73 | CCC(C)NC(=O)c1c[nH]c2ccc(S(=O)(=O)N(C)c3cc(Cl)ccc3OC)cc2c1=O (configuration not stated)
-0.23 | COc1cccc(CNC(=O)c2nnn(-c3cccc(C(F)(F)F)c3)c2N)c1
0.75 | CCn1cnc2sc(C(=O)Nc3cc([N+](=O)[O-])ccc3OC)c(C)c2c1=O
-0.42 | CCC(C)NS(=O)(=O)c1ccc2c(c1)Cc1cc(S(=O)(=O)NC(C)CC)ccc1-2 (configuration not stated)
0.21 | O=c1oc2c(-c3ccc(SC(F)F)cc3)cc(O)cc2s1
1.85 | COc1ccccc1-c1coc2cc(OCc3ccccc3Cl)ccc2c1=O
2.49 | Cc1ccc(-n2c(=O)c3ccccc3n(CC(=O)c3ccc(Cl)cc3)c2=O)cc1
-0.37 | COC(=O)c1ccc2c(=O)n(Cc3ccc4c(c3)OCO4)c(SCC(=O)Nc3ccc(C)c(Cl)c3)nc2c1
1.39 | COc1ccc(Cl)cc1NC(=O)c1c(NCc2ccc(C)o2)sc2c1CCCCC2
-1.66 | COCCNS(=O)(=O)c1cc(OC)ccc1OC
-0.56 | Cc1ccccc1NC(=O)c1ccc(Cl)c(S(=O)(=O)N2CCCCCC2)c1

(more compounds)
Measles inh | SMILES
-1.98 | CCN(CC)c1cc(C)nc(NCc2ccccc2)n1
-0.31 | CCOC(=O)c1ccc(CN(Cc2ccc(C)cc2)S(=O)(=O)c2ccccc2)cc1
1.28 | CNc1nonc1C(=O)O
1.49 | CCN(CC)c1cc(C)c2cc(NC(=O)c3cccc(C(F)(F)F)c3)ccc2n1
-0.24 | COc1cccc2c1OC1(C)CC2NC(=S)N1c1ccccc1C (configuration not stated)
-1.49 | COc1cc(C2C(C(=O)OCCc3ccccc3)=C(C)NC3=C2C(=O)CCC3)cc(Cl)c1O (configuration not stated)
0.13 | CC1CCN(c2ccc(N3C(=O)C4CCCCC4C3=O)cc2[N+](=O)[O-])CC1 (configuration not stated)
-0.74 | CS(=O)(=O)N(c1ccc(Cl)cc1)C1CCS(=O)(=O)C1 (configuration not stated)
-0.78 | CN(C)CCCNS(=O)(=O)c1ccc(F)cc1
0.29 | Cc1ccc(-n2nc3c(c2NC(=O)c2ccccc2[N+](=O)[O-])CS(=O)(=O)C3)cc1
0.3 | c1ccc2c(c1)NC1(CCCCCC1)S2
0.08 | CC1CCN(C(=O)c2c[nH]c3ccc(S(=O)(=O)N4CCN(C)CC4)cc3c2=O)CC1

The closing 7 compounds of the section above are carried over, then new ones follow.
Measles inh | SMILES
-1.49 | COc1cc(C2C(C(=O)OCCc3ccccc3)=C(C)NC3=C2C(=O)CCC3)cc(Cl)c1O (configuration not stated)
0.13 | CC1CCN(c2ccc(N3C(=O)C4CCCCC4C3=O)cc2[N+](=O)[O-])CC1 (configuration not stated)
-0.74 | CS(=O)(=O)N(c1ccc(Cl)cc1)C1CCS(=O)(=O)C1 (configuration not stated)
-0.78 | CN(C)CCCNS(=O)(=O)c1ccc(F)cc1
0.29 | Cc1ccc(-n2nc3c(c2NC(=O)c2ccccc2[N+](=O)[O-])CS(=O)(=O)C3)cc1
0.3 | c1ccc2c(c1)NC1(CCCCCC1)S2
0.08 | CC1CCN(C(=O)c2c[nH]c3ccc(S(=O)(=O)N4CCN(C)CC4)cc3c2=O)CC1
-1.26 | CC(C)CCOC(=O)C(C)Oc1ccc2c(=O)c(Oc3ccccc3Br)coc2c1 (configuration not stated)
0.35 | O=[N+]([O-])c1ccc(CSc2nnc3c(n2)[nH]c2ccccc23)cc1
-1.02 | CCOC(=O)CSC1=NC(=O)CS1
-0.31 | COc1cccc(NC(=O)C(=O)NCCCn2ccnc2)c1
-0.46 | COc1ccc(C)cc1NC(=O)CCCN1C(=O)c2cccnc2C1=O
-0.13 | O=c1cc(-c2ccccc2)nc(SCCOc2ccc(Cl)cc2)[nH]1
-0.54 | Cc1cc(C)c(C#N)c(SCC(=O)c2ccc(Br)cc2)n1
0.48 | O=C(CSC1CC(=O)N(c2ccc(C(=O)O)cc2)C1=O)Nc1cccc(F)c1 (configuration not stated)
-0.62 | CCOc1ccc(NC(=O)c2cc(S(=O)(=O)N(C)Cc3ccccc3)ccc2F)cc1
0.94 | CCOC(=O)c1cnc2c(C#N)cnn2c1-c1ccccc1
-0.12 | Cc1cc(C)cc(Oc2c(C(F)(F)F)oc3cc(OC(=O)c4ccco4)ccc3c2=O)c1
-0.12 | Cc1nn(-c2ccccc2)c(Cl)c1C(=O)Nc1ccc(C)c2cccnc12
-0.29 | Fc1cccc(C2C=C(c3cccc(Br)c3)Nc3nnnn32)c1 (configuration not stated)
-0.01 | O=C(O)CCC(=O)N1c2ccccc2NC2=C(C(=O)CC(c3ccc(F)cc3)C2)C1c1ccc([N+](=O)[O-])o1 (configuration not stated)

High-throughput results: PubChem, Emory University Molecular Libraries Screening Center

An excerpt; the hit share may differ from the screen's.
